Bioassay records deposited in PubChem BioAssay by several laboratories.
HIV Env fusion: inhibitors of HIV Env-mediated cell fusion; inhibition, % at 12.3 µM; HeLa-JRFL Env/CEM21 cell fusion, luciferase; 1.1% of 360,000 active;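 active = mean replicate inhibition score of at least 50 and every replicate individually at or above 50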;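 note: 0% = plate neutral controls and 100% = maraviroc near 300 nM; one replicate is shown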
CSC inhib: cancer stem cell inhibition | cancer stem cell-like cells viability, luminescence | inhibition, % at 7.5 µM | 1.1% of 300,000 active;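 active = mean at 75% or more and at least half the replicates too; tested in HMLE shEcad cells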;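 note: 0% = median of negative and 100% = median of positive control wells; the first replicate is given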
eIF4H FP inh: inhibitors of RNA binding by human eIF4H; inhibition, % at 35 µM; Q15056; 0.94% of 290,000 active; eIF4H fluorescence polarization binding assay; AID 2012;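 active = 50% or more with normal probe brightness, or confirmed in later tests; about a fifth of its hits are not listed in these tables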;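 note: calls also rest on retests at 20 µM and on dose response follow-up; 0% = protein and probe with vehicle and 100% = probe without protein; strong numbers were not always called active; many hits fall short of the cut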
MT1-MMP act inh: inhibitors of human MT1-MMP activation | P50281 | HT1080 RFP-PRO-GFP cells, GFP/RFP ratio fluorescence, overnight; percent of plate control window, DMSO zero | GFP/RFP ratio change, % at 20 µM | 0.061% of 360,000 active | AID 651647;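 active = GFP/RFP ratio change of at least 30% with cell ATP level not reduced by more than half and red fluorescence within 50% of control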; note: strong numbers were not always called active
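Assay system: HT1080 cells carrying an RFP-PRO-GFP reporter | Dosing: Single dose of 20 µM compound, 1% DMSO final | Incubation: Cells overnight before dosing, compound overnight, 37 °C, 5% CO2 | Evaluation: GFP/RFP fluorescence ratio | Control set: DMSO and RFP-L50D-GFP cell wells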
PABP polyA inh: blocks human PABP binding to poly(A) RNA. P11940. fluorescence polarization. inhibition, % at 35 µM. 1% of 290,000 active. AID 2014;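 active = 50% or more with normal probe brightness, or confirmed in later tests; about a fifth of its hits are not listed in these tables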;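 note: calls also rest on retests at 20 µM and on dose response follow-up; controls were probe without protein and protein plus probe with vehicle; some compounds called inactive have numbers as strong as hits; many hits fall short of the cut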
Target sequence (P11940 whole entry, looked up): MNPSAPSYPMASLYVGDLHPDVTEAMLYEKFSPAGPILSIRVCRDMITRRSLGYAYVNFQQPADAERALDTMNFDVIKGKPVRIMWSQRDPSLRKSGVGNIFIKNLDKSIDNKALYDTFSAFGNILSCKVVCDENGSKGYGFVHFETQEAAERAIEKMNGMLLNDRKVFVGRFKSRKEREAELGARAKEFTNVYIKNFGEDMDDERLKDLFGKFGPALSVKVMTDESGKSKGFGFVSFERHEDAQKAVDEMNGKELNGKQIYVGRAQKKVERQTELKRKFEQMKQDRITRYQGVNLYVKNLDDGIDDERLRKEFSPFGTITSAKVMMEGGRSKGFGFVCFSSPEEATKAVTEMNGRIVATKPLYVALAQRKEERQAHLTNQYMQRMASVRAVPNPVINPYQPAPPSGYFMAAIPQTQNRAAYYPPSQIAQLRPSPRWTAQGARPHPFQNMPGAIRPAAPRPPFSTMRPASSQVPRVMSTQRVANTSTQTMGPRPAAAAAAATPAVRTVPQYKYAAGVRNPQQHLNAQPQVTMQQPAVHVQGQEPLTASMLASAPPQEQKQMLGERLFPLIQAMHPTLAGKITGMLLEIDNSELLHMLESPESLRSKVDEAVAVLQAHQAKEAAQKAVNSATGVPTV
Yeast UUG start: yeast start codon fidelity modulation; S. cerevisiae UUG-firefly luciferase reporter, luminescence/redox ratio; activity score, % at 18.7 µM; 0.13% of 350,000 active; AID 602363;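 active = replicate mean at a twofold rise or more, about +100% in these data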;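 note: firefly luciferase made from a UUG start codon reports start codon fidelity; reporter light over untreated wells divided by growth signal over untreated wells; some hits fall short of that in this replicate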
Rce1 inhib: blocks yeast Ras-converting enzyme. Q03530. yeast membranes, quenched prenylated peptide cleavage fluorescence. calls only. 0.27% of 290,000 active. AID 2563;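 active = fall in fluorescence gain of 50% or more versus controls, with final raw signal at or below 3038400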;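 note: plate controls were neutral control wells for no effect and wells lacking membranes for full effect; tested at 10 µM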
MT1-MMP act inh RFP: second read-out of MT1-MMP act inh, no call of its own (marks repeat the call); RFP signal change, %; measured here: RFP expression control read;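 0 = vehicle wells; hits needed this value within 50% of zero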
Active calls of the source: *; i = inactive; . = not tested or not shown; + = active, no number; & = joins results of further samples; [ ] = remark or other dose. An excerpt. The share of hits here may be higher or lower than overall.

Under each structure: HIV Env fusion	CSC inhib	eIF4H FP inh	MT1-MMP act inh	MT1-MMP act inh RFP	PABP polyA inh	Yeast UUG start	Rce1 inhib
O=C(O)c1cccc2c1/C(=N/Nc1ccc([N+](=O)[O-])cc1[N+](=O)[O-])c1ccccc1-2
  .	.	9	4	1	11	-14	i
COc1ccc(C2(C)NC(=O)N(CC(=O)Nc3ccc4ccccc4c3)C2=O)cc1OC (stereo not given)
  8	.	.	0	-5	.	23	.
C=CCOc1ccc(C(=O)Nc2ccc(OCC)cc2)cc1
  15	4	-1	8	5	-7	-16	i
COC(=O)c1sc(N2C(=O)C(O)=C(C(=O)c3ccc(C)o3)C2c2cccs2)nc1C (stereo not given)
  50	-13	-2	-2	5	4	-14	i
O=[N+]([O-])c1ccc2c(c1)C(N1CCOCC1)/C(=C/C1(O)CCCCC1)O2 (stereo not given)
  -8	13	3	2	2	-6	-13	i
COc1ccc(Cn2nnnc2C(c2ccc(C)cc2)N2CCN(C3CCCC3)CC2)cc1 (stereo not given)
  .	0	-13	-1	2	-8	-9	i
C=CCSc1nnc2c(n1)OC(c1ccco1)Nc1ccccc1-2 (stereo not given)
  2	4	21	6	1	4	.	i
CCCCN(C)Cc1c(C)[nH]c2ccc(OCC)cc2c1=O
  -8	-6	-4	1	4	7	-10	i
O=C(NNC1CC(=O)N(c2ccc(Cl)cc2)C1=O)c1ccco1 (stereo not given)
  3	.	-1	-12	-1	-12	.	i
CCC(C)N1CC(C(=O)O)CC1=O (stereo not given)
  .	-14	-1	1	11	8	-7	i
Cc1ccccc1CN1C(=O)C(C)Sc2ccc(-c3ccco3)cc21 (stereo not given)
  -32	.	.	-8	2	.	-3	.
COc1ccccc1N1CCN(C(CNS(=O)(=O)c2cc(F)ccc2F)c2cccnc2)CC1 (stereo not given)
  -1	9	4	2	1	7	-16	i
Cc1ccccc1OCCC(=O)OCC(=O)NC1CCS(=O)(=O)C1 (stereo not given)
  -10	-13	.	-2	0	.	.	i
COc1ccccc1N1CCN(Cc2nnnn2CCc2ccccc2)CC1
  .	.	-5	4	-1	5	-15	i
CC(=O)Nc1cccc(C(=O)OC(C)C(=O)N2CCc3ccccc32)c1 (stereo not given)
  -12	-14	.	-1	-2	.	-16	i

Complete entries from above:
O=C(NNC1CC(=O)N(c2ccc(Cl)cc2)C1=O)c1ccco1 (stereo not given) reads HIV Env fusion: 3; CSC inhib: .; eIF4H FP inh: -1; MT1-MMP act inh: -12; MT1-MMP act inh RFP: -1; PABP polyA inh: -12; Yeast UUG start: .; Rce1 inhib: i
CCC(C)N1CC(C(=O)O)CC1=O (stereo not given) reads HIV Env fusion: .; CSC inhib: -14; eIF4H FP inh: -1; MT1-MMP act inh: 1; MT1-MMP act inh RFP: 11; PABP polyA inh: 8; Yeast UUG start: -7; Rce1 inhib: i

More records follow.
Under each structure: HIV Env fusion	CSC inhib	eIF4H FP inh	MT1-MMP act inh	MT1-MMP act inh RFP	PABP polyA inh	Yeast UUG start	Rce1 inhib
O=c1c2ccccc2nc(N/N=C/c2ccccc2)n1O
  -51	16	-1	4	2	6	-20	i
O=c1[nH][nH]c(=O)c2cc([N+](=O)[O-])ccc12
  .	4	.	5&-1	3&7	.	-11&-10	.
Cc1cc(=O)oc2c(O)c(O)ccc12
  5	.	.	4	-6	.	17	.
Cc1oc2c(CN(C)C)c(O)ccc2c(=O)c1-c1ccc2ccccc2n1
  .	-4	-8	0	3	5	5	i
Cc1ccc(N2C(=O)NC3(CCCCC3)C2=O)cc1
  .	-7	1	-4	1	3	1	i
OCCN1CCN(Cc2cccc(Oc3ccc(Cl)cc3)c2)CC1
  22	62	-6	6	1	12	-12	i
COC1(NS(=O)(=O)c2ccc(Br)cc2)C(C)=CC(=O)C=C1C
  18	-4	-8	1	6	-2	.	i
Cc1cc(=O)[nH]c(N=N/C(=N/Nc2ccc(O)cc2)c2ccccc2)n1
  .	-11	18	-3	1	10	-9	i
CCCOc1cccc(C(=O)NCCCNC(=O)c2ccccn2)c1
  10	-4	-7	2	0	-13	-5	i
CCOC(=O)c1cc(NC(=O)Nc2cc(C)ccn2)c(C)nc1C
  -3	5	8	2	-3	4	-6	i
CCN(CC(=O)NCCc1ccc(S(N)(=O)=O)cc1)Cc1nc2ccccc2c(=O)[nH]1
  2	-8	9	2	15	8	-8	i
CCn1c(=O)c2sccc2n(Cc2ccc(C)cc2)c1=O
  -7	17	4	1	1	2	-12	i
COc1cc(NC(=O)c2ccccc2)c(OC)cc1NC(=O)Cc1ccc(Br)cc1
  4	5	-1	-1	-4	0	-17	i
CCC(C)NS(=O)(=O)c1ccc(OCC(=O)Nc2ccc(F)cc2F)cc1 (stereo not given)
  .	2	4	3	1	-12	-14	i
O=C(c1ccccc1)c1cc(F)c(N2CCOCC2)cc1Cl
  .	.	-5	6	-1	-13	13	i
COc1cc(OC)c(C2CC(=O)N3CN(c4ccccc4)CSC3=C2C#N)cc1OC (stereo not given)
  -47	-5	22	-2	-6	28	-2	i
CC(C)CC(C(=O)NCc1ccccn1)N1C(=O)c2ccccc2C1=O (stereo not given)
  .	-7	-8	-2	-4	-3	-10	i
O=C(CNS(=O)(=O)c1cccs1)NCc1ccc(F)cc1
  2	-5	-5	-4	0	-4	.	.
COc1ccccc1-c1nc(SCc2ccccn2)n[nH]1
  .	-2	-2	1	4	-2	-16	i
CCN(C(=O)c1cc2c(=O)n3ccccc3nc2n1C)C1CCCCC1
  -39	-5	.	-4	-4	.	-16	i
O=C(CN1C(=O)c2ccccc2C1=O)Nc1ccccc1N1CCOCC1
  -20	2	2	1	0	-1	.	i
CC(C)(C)C(=O)NNC(=O)c1cnccn1
  16	0	3	1	4	0	.	i
Nc1nonc1-c1noc(CCCOc2ccc(Cl)cc2Cl)n1
  13	3	1	5	2	-3	7	i
Cc1ccc(C)c(-c2csc(NC(=O)c3c(C)noc3C)n2)c1
  .	-6	.	5	-20	.	-13	.
COc1ccc([C@@H]2[C@@H]3C(=O)N(C(C)(C)C)C(=O)[C@@H]3[C@]3(C)C(=O)N(c4cccc(C)c4)C(=O)N23)cc1
  36	0	2	-2	0	11	-11	i
FC(F)(F)c1cccc(-c2cncc(N3CCN(CCN4CCCC4)CC3)n2)c1
  -11	.	.	8	8	.	-15	.
Cc1cc(N)n(-c2ccccc2)n1
  .	-17	-9	-1	-1	-13	-30	i
COC(CNC(=O)C1CCCN1C(=O)OCc1ccccc1)OC (stereo not given)
  5	-14	-3	2	1	-8	.	i
Cc1cc(OC(F)F)ccc1NC(=S)NCCc1ccccc1
  26	32	15	0	-2	6	-18	i
Cc1ccc(-n2c(C)nnc2SCC(=O)Nc2ccccc2)cc1
  -1	-3	-6	0	-2	17	-1	i
O=C(Nc1cc(S(=O)(=O)N2CCOCC2)ccc1N1CCOCC1)c1ccccc1F
  .	-10	.	-1	5	.	-4	.
CC(C(=O)Nc1ccc(F)c(F)c1F)N(C)Cc1cccs1 (stereo not given)
  32	4	2	1	-3	-2	-11	i
COc1ccc(Cl)cc1C(=O)NNC(=O)COC(=O)c1ccc(Br)o1
  -6	-15	.	1	4	.	-13	.
COc1cccc(C(C(=O)NC2CCCC2)N(Cc2ccco2)C(=O)c2ccco2)c1OC (stereo not given)
  -42	1	4	-4	3	-1	.	i
COc1ccccc1N1CCN(S(=O)(=O)c2cccs2)CC1
  -22	-6	-8	2	0	-4	-5	i
CCO[C@@H]1OC(C(N)=O)=C[C@H](c2cn(C(C)=O)c3ccccc23)[C@H]1CCCO
  -5	-8	-3	3	6	0	-9	i
Cc1ccc(-c2[nH]nc3c2C(c2ccsc2)C(C#N)=C(N)O3)cc1 (stereo not given)
  -9	-1	-2	-3	6	4	-11	i
CN1c2cccc3cccc(c23)N(C)C1(C)C
  -22	-11	73*	2	2	55*	-10	i
Cc1ccc(Cl)cc1NC(=O)CC1NCCNC1=O (stereo not given)
  .	1	4	0	2	9	-8	i
COc1ccc(C(CNC(=O)CNC(=O)c2ccc(F)cc2)N2CCCC2)cc1 (stereo not given)
  -11	0	.	-3	0	.	-5	.
COc1ccc(/C=N/N=C2/NC(=O)C(CC(=O)O)S2)cc1OCc1ccc(Cl)cc1 (stereo not given)
  -3	21	7	1	-1	-5	-17	i
CS(=O)(=O)NCCOc1ccc(S(=O)(=O)N2CCCc3ccccc32)cc1
  .	7	3	-13	-4	8	6	i
C[C@H]1CN([C@@H](C)CO)C(=O)Cc2cc(NS(=O)(=O)c3cn(C)cn3)ccc2O[C@@H]1CN(C)C(=O)Nc1ccc(F)cc1
  -14[16.7 µM]	.	.	1	2	.	-2&-5	.
CCN(CC)CCn1c2c(c(SCC(=O)Nc3cc(C)cc(C)c3)nc1=O)CCC2
  -32	-11	.	1	3	.	.	i
Cc1cc(=O)nc2c3ccccc3n(CC(=O)NC3CCCCC3)n12
  7	2	5	0	3	4	-16	i
O=C1NN(c2ccccc2)C(=O)/C1=C\c1cccn1-c1ccc(Cl)c([N+](=O)[O-])c1
  20	9	6	24	-10	-4	-16	i
Cc1cc(=O)[nH]c(S/C=C/c2ccccc2)n1
  .	15	-1	2	4	4	.	i
CC(=O)Nc1ccc(S(=O)(=O)N2CCSC2c2ccc(Cl)cc2)cc1 (stereo not given)
  .	7	-4	11	-15	-4	9	i
Cc1cc(Cl)ccc1OCC(=O)NNC(=O)C1CCN(c2ncnc3sc(C)c(C)c23)CC1
  10	6	.	2	-12	.	-12	.
O=C(Cc1ccccc1)NC(=S)Nc1ccc(N2CCCCC2)cc1
  8	10	-4	2	-1	6	.	i
CCCNC(=O)C(CC)NS(=O)(=O)c1ccc(OC)cc1 (stereo not given)
  .	-7	-5	1	2	-10	1	i
CCCN1C(=O)/C(=C/c2ccc(C)o2)SC1=Nc1ccc(OCC)cc1
  .	20	8	.	.	1	-9	i
COc1cc(/C=C2/C(=N)N3N=C(CC(=O)N4CCOCC4)SC3=NC2=O)ccc1OCc1ccccc1
  -29	2	.	-1	1	.	-6	i
O=C(C1=C[C@@H](C2CC2)C[C@@H](OCc2ccc(CO)cc2)O1)N1CCN(Cc2ccccc2)CC1
  1[16.7 µM]	10	1	6	-4	18	-1&-6	+
CC(C)CCN1CC(C(=O)NCc2ccc(F)cc2)CC1=O (stereo not given)
  .	-1	-7	2	8	-1	-6	i
CCOc1ccc(N(CC(=O)Nc2ccccc2Cl)S(C)(=O)=O)cc1
  -146	50	-2	-5	-8	-5	-18	i
CCc1c(C)nc(SCC(=O)N2C(C)CCCC2C)[nH]c1=O (stereo not given)
  -11	.	-4	6	4	-1	-28	i
CC(Cc1cnccn1)NC(=O)c1cc(COc2ccc(F)cc2F)on1 (stereo not given)
  0	-5	-10	2	2	6	-4	i
O=C(O)CCC(=O)N1CCC(n2nnc3cc(C(F)(F)F)ccc32)CC1
  0	-8	8	2	1	-12	-4	i
Cc1cc(NC(=O)c2cccs2)ncc1NC(=O)C(C)(C)C
  -32	6	-6	2	5	4	-37	i

The listing continues.
Under each structure: HIV Env fusion	CSC inhib	eIF4H FP inh	MT1-MMP act inh	MT1-MMP act inh RFP	PABP polyA inh	Yeast UUG start	Rce1 inhib
Cn1ccc2c(-c3ccccc3F)cc3c(c21)C1CCC3C1 (stereo not given)
  9	.	.	0	3	.	-1	.
CCOC(=O)c1ccc(NC(=O)c2ccc(NC(=O)c3ccccc3)cc2)cc1
  -5	-3	3	-2	0	0	-21	i
O=C(CCCC(=O)OCC(=O)c1cccs1)Nc1ccc(F)cc1
  0	-1	2	-1	-1	-2	.	i
Cc1cccc(C)c1NC(=O)NC1CC2CCC(C1)N2Cc1cccs1 (stereo not given)
  .	-15	2	1	6	-2	-14	i
CCC(CC)NC(=O)COC(=O)c1ccc(OCc2ccc(C(C)=O)cc2OC)c(OC)c1
  -14	-31	-10	-2	-4	2	-3	i
